Source: PubChem (several laboratories)
TMEM16A inh: blocks the mouse calcium-activated chloride channel TMEM16A | hit rate 1.2% among 310,000 | Q8BHY3 | normalized B-score (activity score, 25-100; higher = stronger inhibition) at 10 µM | HEK293 TMEM16A/YFP iodide influx fluorescence, ionomycin;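 active means ratio plate-corrected score three or more library SD toward inhibition, starting fluorescence score within five deviations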;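 further: score derived from kinetic fluorescence span divided by baseline fluorescence per well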
KCNK3 inh: human KCNK3 channel inhibition, primary screen; O14649; CHO-KCNK3 thallium flux, FluxOR fluorescence; stronger effect = lower value; B-score at 10 µM; hit rate 0.84% among 340,000; AID 602410;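 active means B-score under library mean minus 4 SD, starting fluorescence ratio at most library mean plus 5 SD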;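 further: more negative B-score means stronger inhibition of thallium flux through KCNK3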
Target sequence (O14649 whole entry, looked up): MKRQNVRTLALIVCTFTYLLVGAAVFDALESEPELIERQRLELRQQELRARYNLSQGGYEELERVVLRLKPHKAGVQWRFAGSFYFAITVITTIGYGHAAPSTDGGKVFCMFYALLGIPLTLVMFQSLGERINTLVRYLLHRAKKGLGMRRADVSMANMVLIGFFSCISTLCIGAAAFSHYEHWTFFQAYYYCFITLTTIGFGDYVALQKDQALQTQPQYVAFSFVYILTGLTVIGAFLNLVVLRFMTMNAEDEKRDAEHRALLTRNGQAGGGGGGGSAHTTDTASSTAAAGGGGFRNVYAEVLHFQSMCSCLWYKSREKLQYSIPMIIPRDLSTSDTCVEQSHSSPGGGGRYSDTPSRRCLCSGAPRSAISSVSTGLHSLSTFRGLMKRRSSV
RGS4 pot: potentiators or activators of RGS4. HEK293 M3R/inducible RGS4, carbachol calcium flux Fluo4; stronger effect = lower value. B-score at 10 µM. hit rate 0.92% among 310,000;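 active means B-score of the integrated calcium signal more than 4 SD below the library mean, with starting fluorescence not abnormally high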;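 further: negative B-score means reduced calcium response which marks RGS4 activation or potentiation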
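Detection: kinetic calcium fluorescence imaging with Fluo4-AM dye, 2 µM / Material: HEK293 cells with stable M3R and inducible RGS4 / Schedule: recording 10 s baseline at 1 Hz, 100 s post-agonist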
ANO1 activ: activates or potentiates the mouse TMEM16A chloride channel; Q8BHY3; HEK293 TMEM16A/YFP-H148Q/I152L, iodide quench fluorescence; stronger effect = lower value; B-score at 10 µM; hit rate 0.3% among 340,000; AID 623877;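 active means fluorescence-ratio B-score plate-corrected deviation score at least 3 library SD below zero, with starting fluorescence score within 5 deviations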;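 further: channel opened by trigger with iodide after compound preincubation; score built on the fluorescence ratio of max minus min over baseline; more negative score means more quench and so TMEM16A activation or potentiation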
KCNK9 inh: inhibitors of human KCNK9 two-pore domain potassium channel; B-score at 10 µM; HEK293 KCNK9, FluxOR thallium flux fluorescence; stronger effect = lower value; AID 488922; hit rate 1.2% among 310,000;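 active means ratio B-score over 3 SD below the library mean, with starting fluorescence within 5 SD of its mean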;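 further: negative B-score means less thallium flux so channel inhibition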
Target sequence (Q9NPC2 whole entry, looked up, the tested form may be a part): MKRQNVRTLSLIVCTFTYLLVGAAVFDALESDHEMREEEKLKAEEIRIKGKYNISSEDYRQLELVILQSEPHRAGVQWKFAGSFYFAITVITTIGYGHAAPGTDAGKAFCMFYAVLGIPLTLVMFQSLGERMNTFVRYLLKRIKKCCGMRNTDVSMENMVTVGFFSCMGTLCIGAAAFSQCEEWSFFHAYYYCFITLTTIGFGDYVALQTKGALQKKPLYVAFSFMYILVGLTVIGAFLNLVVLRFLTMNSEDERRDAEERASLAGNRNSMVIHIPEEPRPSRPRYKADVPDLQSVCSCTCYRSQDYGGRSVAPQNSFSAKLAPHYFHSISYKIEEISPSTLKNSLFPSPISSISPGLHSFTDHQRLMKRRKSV
KCNQ1 inh: blocks the human KCNQ1 potassium channel | AID 2642 | CHO-K1 KCNQ1, FluxOR thallium flux fluorescence; stronger effect = higher value | B-score at 10 µM | hit rate 1.3% among 310,000;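 active means compounds whose thallium flux B-score, printed positive for inhibition, exceeds three library SD while starting fluorescence stays within three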;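 further: channel opened by potassium depolarization with thallium stimulus after 20 min compound exposure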
SKKanGAS inh: blocks kanamycin growth of S. pyogenes SKKanGAS strain. AID 1662. hit rate 1.3% among 300,000. inhibition, % at 7.5 µM. BacTiter-Glo, 6 h;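 active means mean replicate score, as percent of positive control median, at least 50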;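 further: strain carries kanamycin resistance gene driven by streptokinase promoter and grows in 40 µg/ml kanamycin; loss of luminescence reflects streptokinase promoter inhibition or plain growth inhibition; 0% = median of DMSO wells and 100% = positive control at its reference dose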
RGS4 inh: human RGS4 inhibition; P49798; HEK293 M3R/RGS4 inducible, Fluo-4 calcium flux; stronger effect = higher value; triggered by carbachol at its EC20; B-score at 10 µM; hit rate 0.45% among 310,000; AID 463165;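 active means B-score, a plate-corrected calcium signal, over three deviations above library mean, with baseline fluorescence within five deviations of library mean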;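 further: RGS4 expression induced by doxycycline in cells with stable M3 receptor; B-score is computed from the integrated fluorescence ratio over baseline after carbachol; higher B-score means a larger calcium signal and so more RGS4 inhibition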
Target sequence (P49798 whole entry, looked up): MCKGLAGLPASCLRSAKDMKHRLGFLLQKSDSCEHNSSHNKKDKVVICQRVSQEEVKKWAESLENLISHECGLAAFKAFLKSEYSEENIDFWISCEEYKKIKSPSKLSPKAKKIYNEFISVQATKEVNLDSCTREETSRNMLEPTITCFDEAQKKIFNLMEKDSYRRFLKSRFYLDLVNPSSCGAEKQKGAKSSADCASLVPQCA
HDAC3 inhib: inhibitors of human histone deacetylase 3; hit rate 0.15% among 320,000; recombinant HDAC3, fluorogenic peptide/trypsin coupled, fluorescence; inhibition, % at 8.3 µM; O15379; in the data active means inhibition above about 26%, passing the limit was not always enough
KCNQ1 pot: potentiates or activates the human KCNQ1 potassium channel | hit rate 0.35% among 310,000 | B-score at 10 µM | P51787 | CHO-K1 KCNQ1, thallium flux FluxOR fluorescence; stronger effect = higher value;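 active means fluorescence ratio B-score, a plate-corrected score, at least three library SD, with initial intensity B-score within 5 SD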
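System: Stable KCNQ1 CHO-K1 line | Incubation: 90 min dye loading and 20 min compound exposure, both at room temperature | Measure: Ratio B score | Medium: Assay buffer for compound exposure, DMSO matched across wells | Compound dosing: Single-concentration screen | Probe or stimulus: K+/Tl+ depolarizing stimulus | Measured by: Kinetic FluxOR fluorescence, 10 s baseline plus 110 s post-stimulus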
Starred values were filed as active, the others as inactive; i = inactive; · = no result given; & = joins results of further samples.

Every second line gives: KCNQ1 pot | KCNQ1 inh | SKKanGAS inh | ANO1 activ | RGS4 inh | HDAC3 inhib | KCNK3 inh | TMEM16A inh | RGS4 pot | KCNK9 inh
CCC(=O)O[C@@H]1CC(=O)O[C@H](C)CC=CC=C[C@@H](O)[C@H](C)C[C@H](CC=O)[C@H](O[C@H]2O[C@H](C)[C@@H](O[C@H]3C[C@@](C)(O)[C@@H](OC(=O)CC)[C@H](C)O3)[C@H](N(C)C)[C@H]2O)[C@H]1OC
    i | i | 110* | · | i | · | · | · | i | i
N[C@@H]1CONC1=O
    i | i | 1 | · | i | -5 | · | i | i | i
COc1ccccc1Nc1ccc(NS(=O)(=O)c2ccc(C(C)=O)cc2)cc1
    i | i | 5 | i | i | 5 | i | i | i | i
NS(=O)(=O)c1cc(C(=O)O)c(NCc2ccco2)cc1Cl
    i | i | 0 | i | i | 3 | i | i | i | i
CCOC(=O)c1c(C)n(C)c2ccc(OC)c(NC(=O)CN3CCN(C(=O)c4ccco4)CC3)c12
    i | i | -5 | i | i | 2 | i | i | i | i
O=C(O)c1ccc(S(=O)(=O)N2CCC(NC(=O)C3CCCCC3)CC2)cc1
    i | i | 3 | i | i | -1 | i | i | i | i
Nc1ncn([C@@H]2O[C@H](CO)[C@@H](O)[C@H]2O)c(=O)n1
    i | i | -6 | i | i | 1 | i | i | i | i
N#Cc1nc(Cc2cccc3ccccc23)oc1N1CCN(c2ccccc2)CC1
    i | i | -5 | i | i | 1 | i | i | i | i
CC1=NS(=O)(=O)c2cc(Cl)ccc2N1
    i | i | -5 | i | i | · | i | i | i | i
CN(C)c1ccc(O)c2c1CC1CC3[C@@H](N(C)C)C(=O)C(C(N)=O)=C(O)[C@]3(O)C(=O)C1=C2O (stereo not given in full)
    i | i | 106* | i | i | 3 | i | i | i | i
CN1C(=O)C(N=Nc2ccccc2C(=O)O)N(C)C1=S (stereo not given)
    i | i | 8 | i | i | 13 | i | i | i | i
COCCNC(=O)C(c1ccncc1)N(Cc1ccccc1)C(=O)Cn1nnc2ccccc21 (stereo not given)
    i | i | 2 | i | i | 7 | i | i | i | i
COc1ccc(/C=N/NC(=O)CO/N=C(\C)c2cccs2)cc1
    i | i | 26 | i | i | 4 | i | i | i | i
O=c1oc2cc(O)ccc2cc1S(=O)(=O)c1ccccc1
    i | i | -3 | i | i | -248 | i | i | i | i
CC(C)NCC(O)c1cc(O)cc(O)c1 (stereo not given)
    i | i | -4 | i | 4.8* | -1 | i | i | i | i
CN/C(=C\[N+](=O)[O-])NCCSCc1ccc(CN(C)C)o1
    · | · | · | i | · | 3 | i | i | · | ·
CC(C)[C@H](NC(=O)[C@H](CC(=O)O)NC(=O)[C@H](CCCCN)NC(=O)[C@@H](N)CCCN=C(N)N)C(=O)N[C@@H](Cc1ccc(O)cc1)C(=O)O
    i | i | -4 | · | i | -6 | · | i | i | i
CN1CCN(CCCN2c3ccccc3Sc3ccc(C(F)(F)F)cc32)CC1
    i | 6* | 7 | i | i | 4 | i | i | i | i
OCC(O)[C@@H](O[C@H]1O[C@H](CO)[C@@H](O)[C@H](O)[C@H]1O)[C@H](O)[C@@H](O)CO (stereo not given in full)
    i | i | -5 | i | i | 2 | i | i | i | i
CC(C)NC[C@H](O)COc1cccc2ccccc12
    i | i | 0 | i | i | -4 | i | i | i | i
CN(C)CC[C@@H](c1ccc(Br)cc1)c1ccccn1
    i | i | 0 | i | i | 3 | i | i | i | i
O=C(N/N=C/c1ccc2c(c1)OCO2)c1ccc(Br)o1
    i | i | -12 | i | i | 8 | i | i | i | i
CC1CCCC(C)N1CCCNC(=O)c1nn(C)c2c1CSc1ccccc1-2 (stereo not given)
    i | i | -2 | i | i | 2 | i | i | i | i
C=C(CC)C(=O)c1ccc(OCC(=O)O)c(Cl)c1Cl
    i | i | 18 | i | i | -2 | i | i | i | i
O=C(NCC1CCN(Cc2cccc(Cl)c2)CC1)Nc1ccccc1Cl
    i | i | 11 | i | i | -4 | i | i | i | i
Fc1cccc(CN2CCCCCCC2)c1
    i | i | 2 | i | i | -2 | i | i | i | i
CCCC(C)NC(=O)c1cccc(Oc2ccccc2)c1 (stereo not given)
    i | i | -6 | i | i | 7 | i | i | i | i
Cc1cc(/C=N\NC(=O)COc2cccc3cccnc23)c(C)n1-c1ccccc1
    i | i | 9 | i | i | -4 | i | i | i | i
COc1ccc(OCC(=O)Nc2cc(OC)cc(OC)c2)cc1
    i | i | -13 | i | i | 2 | i | i | i | i
CCN(CCNC(=O)C1CCCN(c2ncnc3c2nc2n3CCCCC2)C1)Cc1ccccc1 (stereo not given)
    i | i | 5 | i | i | -2 | i | i | i | i
CC12CCC(C(=O)N(CC(O)CN3CCCCC3)C1=O)C2(C)C (stereo not given)
    i | i | -3 | i | i | -4 | i | i | i | i
C[C@]12CCC(=O)C=C1CC[C@@H]1[C@@H]2[C@@H](O)C[C@@]2(C)[C@H]1CC[C@]2(O)C(=O)CO
    i | i | -3 | i | i | 7 | i | i | i | i
CC(C)CC(=O)NCc1ccc2[nH]c3c(c2c1)CCCC3
    i | i | -4 | i | i | -4 | i | i | i | i
CC(C)(O)c1ccccc1CC[C@@H](SCC1(CC(=O)O)CC1)c1cccc(/C=C/c2ccc3ccc(Cl)cc3n2)c1
    i | i | 105* | i | i | -3 | i | i | i | i
C/C(CC1CC2=C(CC1(C)C)C(C)(C)CCC2)=N\NC(N)=S (stereo not given)
    i | i | -11 | i | i | -1 | i | 25* | i | i
COc1cc(C(=O)OCCCN2CCCN(CCCOC(=O)c3cc(OC)c(OC)c(OC)c3)CC2)cc(OC)c1OC
    i | i | 19 | i | i | -8 | i | i | i | i
Oc1ccc2ccccc2c1CNc1cnc2ccccc2c1
    i | i | 6 | i | i | -23 | i | i | i | i
O=C(N/N=C/c1ccc(OC(=O)c2ccccc2Br)cc1)c1ccccn1
    i | i | 4 | i | i | -3 | i | i | i | i
CCOc1ccccc1NC(=S)N(Cc1cc2ccc(C)cc2[nH]c1=O)CC1CCCN1CC (stereo not given)
    i | i | 7 | i | i | 0 | i | i | i | i
O=C(O)CC(O)(CC(=O)O)C(=O)O
    i | i | 1 | i | i | -5 | i | i | i | i
COc1ccccc1NS(=O)(=O)c1cc(C(=O)N2CCCCCCC2)ccc1C
    i | i | -3 | i | i | 2 | i | i | i | i
C#CC1(O)CCC2C3CCC4=C(CCC(=O)C4)C3CCC21C (stereo not given)
    · | · | · | i | · | · | i | · | · | ·
Nc1ccc(S(=O)(=O)Nc2ccccn2)cc1
    i | i | -4 | i | i | 1 | i | i | i | i
CCCCOC(=O)C1=C(C)Nc2nnnn2C1c1ccc(OC)c(OC)c1OC (stereo not given)
    i | i | 9 | i | i | 7 | i | i | i | i
O=C(CN1C(=O)C2C3C=CC(C3)C2C1=O)Nc1nncs1 (stereo not given)
    i | i | 44 | i | i | -10 | i | i | i | i
Cc1cccc(CS(=O)(=O)Cc2ccc(C(=O)NC3CCCCCC3)o2)c1
    i | i | -4 | i | i | -2 | i | i | i | i
c1ccc2c(c1)CCCC2C1=NCCN1 (stereo not given)
    i | i | 12 | i | i | 10 | i | i | i | i
O=C(O)C1C2C=CC(C2)C1C(=O)NCCC1=CCCCC1 (stereo not given)
    i | i | -2 | i | i | -2 | i | i | i | i
CN(NS(=O)(=O)c1ccc(Cl)cc1)c1ncc(C(F)(F)F)cc1Cl
    i | i | -1 | i | i | 7 | i | i | i | i
COc1ccc2[nH]cc(CCNC(C)=O)c2c1
    i | i | -4 | i | i | -6 | i | i | i | i
CC1(C)SC2C(NC(=O)COc3ccccc3)C(=O)N2C1C(=O)O (stereo not given)
    i | i | 102* | i | i | -3&-5 | i | i | i | i
Cc1ccccc1NC(=O)c1ccc2c(c1)C(=O)N(CC(C)C)C2=O
    i | i | -4 | i | i | 3 | i | i | i | i
CC(=O)Nc1ccc(CN2CCCC(CO)(Cc3ccccc3C)C2)cc1 (stereo not given)
    i | i | 8 | i | i | 4 | i | i | i | i
CCN(CC)CCCN1C(=O)C(O)=C(C(=O)c2cc3cccc(OC)c3o2)C1c1ccncc1 (stereo not given)
    i | i | 7 | i | i | -4 | i | i | i | i
CCCC(=O)Nc1ncnc2c1ncn2[C@@H]1O[C@@H]2COP(=O)(O)O[C@H]2[C@H]1OC(=O)CCC
    i | i | -3 | i | i | -4 | i | i | i | i
CCC(C)NC(=O)C1CCN(S(=O)(=O)c2cccnc2)CC1 (stereo not given)
    i | i | -2 | i | i | -7 | i | i | i | i
CC(=O)CC(c1ccc([N+](=O)[O-])cc1)c1c(O)c2ccccc2oc1=O (stereo not given)
    i | i | 3 | i | i | 4 | i | i | i | i
Cc1cccc(NS(=O)(=O)c2ccc(C(=O)N3CCCCCC3)cc2)c1C
    i | i | 13 | i | i | -1 | i | i | i | i
CCc1ccc(OCCCOc2ccc(C=O)cc2)cc1
    i | i | 2 | i | i | 3 | i | i | i | i
CC(C)c1nc(CN(C)C(=O)N[C@H](C(=O)N[C@@H](Cc2ccccc2)C[C@H](O)[C@H](Cc2ccccc2)NC(=O)OCc2cncs2)C(C)C)cs1
    i | i | 8 | · | i | 12 | · | i | i | i

Further compounds
Every second line gives: KCNQ1 pot | KCNQ1 inh | SKKanGAS inh | ANO1 activ | RGS4 inh | HDAC3 inhib | KCNK3 inh | TMEM16A inh | RGS4 pot | KCNK9 inh
CC(C)(Oc1ccc(Cl)cc1)C(=O)O
    i | i | -5 | i | i | -6 | i | i | i | i
Clc1ccc(-c2nnc(COc3ncnc4ccccc34)o2)cc1
    i | i | -1 | i | i | 4 | i | i | i | i
CN1CCN(NC(=O)/C=C/c2cccc([N+](=O)[O-])c2)CC1
    i | i | -2 | i | i | -4 | i | i | i | i
CN(C)CCC(c1ccc(Br)cc1)c1ccccn1 (stereo not given)
    i | i | 1 | i | i | 5&-1 | i | i | i | i
CN(C(=O)COC(=O)c1cccnc1Nc1cccc(C(F)(F)F)c1)C1CCS(=O)(=O)C1 (stereo not given)
    i | i | -6 | i | i | 9 | i | i | i | i
C/C(=N\NC(=O)c1nnn(-c2nonc2N)c1CSc1ccc(Cl)cc1)c1cccnc1
    i | i | 24 | i | i | -3 | i | i | i | i

Compound profiles, as listed above. Values in the order: KCNQ1 pot	KCNQ1 inh	SKKanGAS inh	ANO1 activ	RGS4 inh	HDAC3 inhib	KCNK3 inh	TMEM16A inh	RGS4 pot	KCNK9 inh
Record of CN(C(=O)COC(=O)c1cccnc1Nc1cccc(C(F)(F)F)c1)C1CCS(=O)(=O)C1 (stereo not given) = i	i	-6	i	i	9	i	i	i	i
Record of CC(C)(Oc1ccc(Cl)cc1)C(=O)O = i	i	-5	i	i	-6	i	i	i	i
Record of CN1CCN(NC(=O)/C=C/c2cccc([N+](=O)[O-])c2)CC1 = i	i	-2	i	i	-4	i	i	i	i

An excerpt. The share of hits here may be higher or lower than overall.
